Resorufin autofl – compounds fluorescent in resorufin spectral region. Compound fluorescence, resorufin region 547/598 nm, buffer; hits give high values. max dye-equivalent concentration, M. 0.04% of 59,000 active. AID 588; active = above 10 nM dye equivalent; inconclusive = 1 to 10 nM; inactive = 1 nM or less; a few of its hits are not listed in these tables; note: highest value over a series up to 38 µM
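Compounds in 100 mM Tris buffer, pH 8.0, incubated 15 min at room temperature, then read with 547 nm excitation and 598 nm emission filters. Fluorescence was converted to dye-equivalent concentration using an on-plate six-point resorufin standard curve.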
TSHR ag – agonists of human thyroid stimulating hormone receptor. 0.48% of 73,000 active. Potency, µM (doses to about 57.1 µM), for the others: at the top dose activation, hits mostly activators. HEK293-CNG-TSHR cells (CNG channel as cAMP sensor), membrane potential dye, cAMP. P16473. AID 926; active = well fitted activation curve of enough size with the parental cells flat; inconclusive = any curve in the parental cells; inactive = parental cells flat and receptor cells flat or falling; note: potency is the fitted concentration of half-maximal effect; % of control where 0% means no effect; weak receptor curves with flat parental cells got no call and are not listed
Target sequence (P16473 whole entry, looked up): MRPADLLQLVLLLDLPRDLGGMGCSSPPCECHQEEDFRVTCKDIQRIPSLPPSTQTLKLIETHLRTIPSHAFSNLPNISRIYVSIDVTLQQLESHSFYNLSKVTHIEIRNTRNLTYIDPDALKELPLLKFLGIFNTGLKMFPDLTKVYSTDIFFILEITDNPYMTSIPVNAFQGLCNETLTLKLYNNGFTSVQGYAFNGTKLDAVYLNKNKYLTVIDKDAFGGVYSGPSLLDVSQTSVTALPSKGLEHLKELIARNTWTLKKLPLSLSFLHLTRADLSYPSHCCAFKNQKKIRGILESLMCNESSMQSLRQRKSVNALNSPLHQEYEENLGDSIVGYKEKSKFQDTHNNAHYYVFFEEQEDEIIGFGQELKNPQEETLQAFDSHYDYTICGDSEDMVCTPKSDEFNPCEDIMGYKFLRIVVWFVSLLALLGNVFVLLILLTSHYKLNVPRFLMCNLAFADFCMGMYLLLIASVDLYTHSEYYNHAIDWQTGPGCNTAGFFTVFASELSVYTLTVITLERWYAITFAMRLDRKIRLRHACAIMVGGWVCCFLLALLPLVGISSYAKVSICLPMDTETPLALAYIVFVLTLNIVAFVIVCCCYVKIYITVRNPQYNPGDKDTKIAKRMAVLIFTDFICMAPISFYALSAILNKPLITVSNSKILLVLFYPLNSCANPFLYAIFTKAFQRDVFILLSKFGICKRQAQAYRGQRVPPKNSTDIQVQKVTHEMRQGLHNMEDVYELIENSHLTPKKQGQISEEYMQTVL
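cAMP rise detected as CNG-channel membrane depolarization by fluorescent dye (emission 590 nm), 30 min after compound, following 60 min dye loading containing 100 uM RO 20-1724 at room temperature. Cells: TSHR/CNG HEK 293, with parental CNG HEK 293 as control.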
A647 autofl – compound fluoresces in the A647 spectral region; 59,000 tested, under 10 active; Compound fluorescence, A647 channel (570/671 nm), Tris buffer; max dye-equivalent concentration, M; active means above 1 µM dye equivalent; inconclusive means 0.1 to 1 µM; inactive means 0.1 µM or less;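 note: values scaled relative to a standard on each plate; highest value over a series up to 38 µM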
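Each compound's intrinsic fluorescence at 570 nm excitation and 671 nm emission is measured across its concentration series in 100 mM Tris, pH 8.0, after 15 min at room temperature, and reported relative to an A647 curve.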
AID923 – qHTS Assay for Allosteric/Competitive Inhibitors of Caspase-1: Spectroscopic Profiling in AFC Spectral Region | Potency, µM (titrated, usually from 57.5 µM), inactives show at the highest dose fluorescence increase, most hits filed as activators | compound fluorescence, AFC spectral region (405/520 nm); almost no hit is shown here | 1.1% of 75,000 active; active = well fitted activation curve with a large enough effect; inconclusive = small, poorly fitted or top-dose-only effect;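 note: potency is the fitted concentration of half-maximal effect; 0% is about no effect; scaled to a free AFC standard on each plate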
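Titrations up to 57 uM read every 20 sec for 3 min (405/520 nm) with 50 nM caspase 1 and 5 uM Ac-WEHD-AFC, pH 7.5 HEPES buffer. Fluorescence-vs-time intercept gave baseline, scaled against on-plate AFC standard.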
A488 autofl – compound autofluorescence in A488 spectral region. max dye equivalency, M. compound autofluorescence, A488 spectral region, dye equivalency; hits give high values. AID 591. 0.1% of 59,000 active; active = above 10 nM dye equivalent; inconclusive = 1 to 10 nM; inactive = 1 nM or less; about half of its hits are not listed in these tables;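 note: highest value over a series up to 38 µM; compound alone in buffer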
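Compound autofluorescence was read in 100 mM Tris pH 8.0 after 15 min at room temperature, ex 480 nm/em 540 nm. Intensities were converted to A488 dye-equivalent concentration using an on-plate six-point A488 standard curve.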
Starred values were filed as active, the others as inactive; i = inactive; ? = inconclusive; nt = no result given; [ ] = another dose, or the depositor's remark.

Compound,Resorufin autofl,TSHR ag,A647 autofl,AID923,A488 autofl
CCN(CCNC(=O)CN1CCN(Cc2ccc(Cl)cc2)C1=O)c1ccccc1,i,-2%,1e-09,0.4%,i
COc1ccc(-c2nnc(SCCc3ccccc3)n2N)cc1,i,15%,1.6e-08,0.1%,i
COc1ccc2nc(NC(=O)C3CCCN(S(=O)(=O)c4c(C)noc4C)C3)sc2c1 (stereo not given),nt,-15%,nt,-2.2%,nt
COc1ccc(C)cc1S(=O)(=O)N(C)CC(=O)NC1CCCCC1,i,4%,4.4e-09,1.5%,i
COc1ccc(S(=O)(=O)Nc2cc(C)ccc2OC)cc1C,i,11%,8.4e-09,-2.3%,i
CN(C)Cc1ccc(C(C)(C)C)cc1-c1cc(C(C)(C)C)ccc1CN(C)C,i,0%[11.4 µM],2.5e-09,-1.9%[11.5 µM],i
O=C(c1cccc(C(=O)N2CCN(c3ccccc3F)CC2)c1)N1CCN(c2ccccc2F)CC1,nt,4%[11.4 µM],nt,3.8%,nt
COc1ccc(CCNC(=O)CC2Nc3ccccc3NC2=O)cc1OC (stereo not given),i,-2%,4.6e-09,2.4%,i
Cc1ccc(CNC(=O)CSc2ncccn2)cc1,i,3%,1.9e-08,-0.4%,i
Cc1nn(CCCNC(=O)C2CCCO2)cc1Br (stereo not given),i,3%,2.3e-09,0.9%,i
COc1ccc(OC)c(Nc2ncnc3c2cnn3-c2ccccc2)c1,i,-4%,6.9e-08,-1.3%,i
CN(C)CCNC(=O)c1cc2ccccc2oc1=O,i,-13%,3.8e-09,-1.0%,i
CCCn1c(Sc2nnnn2-c2ccccc2)n[nH]c1=O,i,-8%,1e-09,-1.4%,i
O=c1c(-c2ccc(F)cc2)coc2cc(O)ccc12,nt,-16%,nt,3.0%,nt
COc1ccc(NC(=O)Nc2ccc(N3CCCC3=O)cc2)cc1OC,nt,-7%,nt,0.2%,nt
Cc1ccc(S(=O)(=O)NC(=NC(C)C(=O)O)c2ccccc2)cc1 (stereo not given),nt,2%,nt,1.9%,nt
CC1(C)Cc2[nH]c(=S)c(C#N)cc2CO1,i,nt,8e-08,nt,i
Cc1ccc2c(c1C)NC(C)CC2C (stereo not given),i,-2%,4.1e-08,3.8%,i
Cc1oc2cc(O)ccc2c(=O)c1-c1cnn(-c2ccccc2)c1,i,nt,2.4e-08,nt,i
O=C1CC(c2nc3ccccc3[nH]2)CN1Cc1ccccc1 (stereo not given),nt,22%,nt,-0.3%,nt
Clc1ccccc1C(c1nnnn1Cc1ccco1)N1CCN(Cc2ccco2)CC1 (stereo not given),i,?,3.6e-08,1.5%,i
O=C(CSc1nc2[nH]ncc2c(=O)n1-c1ccccc1Br)NCc1ccco1,i,14%,3.8e-08,-1.8%,i
CCOc1ccc(NS(=O)(=O)c2ccc3[nH]cc(C(=O)NCCOC)c(=O)c3c2)cc1,i,-18%,2.5e-08,0.9%,i
CCC(C)(C(=O)NC1CCCC1)N(Cc1ccco1)C(=O)c1ccc2c(c1)OCO2 (stereo not given),i,?,2e-08,0.7%,i
O=C(Cn1cc2c(n1)CCCC2)N1CCCc2ccccc21,nt,28%,nt,2.5%,nt
O=C(CCCSc1nc2ccccc2[nH]1)Nc1nnc(-c2ccccc2)o1,i,0%,1.8e-08,-3.6%,i
N#Cc1c(NC(=O)CN2CCOCC2)oc(-c2ccccc2)c1-c1ccccc1,i,?,1.4e-08,2.0%,i
COc1ccc(-c2cc(C(=O)N3CCc4ccccc4C3)no2)cc1OC,i,7%[11.4 µM],3.5e-09,-0.4%,i
CCc1ccc(C2N(c3ccc(OC)cc3)C(=O)C3CCCN32)cc1 (stereo not given),nt,26%,nt,1.0%,nt
COc1cccc(-c2nc(NCc3ccccc3OC)c3ccccc3n2)c1,i,nt,7.2e-09,1.0%,i

Further records
Compound,Resorufin autofl,TSHR ag,A647 autofl,AID923,A488 autofl
COc1ccc(C(C)C)cc1S(=O)(=O)N1CCN(C)CC1,i,4%,3.7e-08,1.8%,i
CCOc1cccc(C(=O)N2CCCCC2c2cccnc2)c1 (stereo not given),nt,9%,nt,3.1%,nt
O=C(CSc1nc2c(c(=O)n1-c1ccc(Cl)cc1)SCC2)NCC1CCCO1 (stereo not given),i,13%[11.4 µM],5.3e-09,-0.5%,i
CC(c1ccccc1)C1CC(=O)N(c2ccc(C(=O)O)cc2)C1=O (stereo not given),i,-4%,5.7e-09,-1.5%,i
Cc1cc(C)n(C(=O)CSc2nnc(SCC(=O)n3nc(C)cc3C)s2)n1,i,3%,3e-08,-0.1%,i
COc1cccc(C(=O)CSc2nnc(-c3cc(OC)cc(OC)c3)o2)c1,i,23%,1e-09,-0.8%,i
Nc1c(N2CCCC2)cc(Cl)c2nonc12,i,-58%[inhibitor],1e-09,8.7%,i
CCCc1cc(C(=O)NCC(C)C)no1,nt,0%,nt,2.3%,nt
CC1CCCCN1C(=O)c1ccc(C(=O)N2CCCCC2C)cc1 (stereo not given),nt,-3%[11.4 µM],nt,2.6%,nt
COc1ccc(OC)c(S(=O)(=O)N2CCN(C34CC5CC(CC(C5)C3)C4)CC2)c1,i,8%,1.6e-08,2.1%,i
COc1ccc(C(NC(C)=O)c2ccc3cccnc3c2O)c(OC)c1 (stereo not given),nt,15%,nt,-1.9%,nt
Cc1cc(NS(=O)(=O)c2ccc(NC(=O)CCCC(=O)O)cc2)nc(C)n1,nt,1%,nt,1.1%,nt
COCCN(C(=O)CNC(=O)c1cccs1)C(C(=O)NC1CCCCC1)c1ccco1 (stereo not given),i,8%,4e-08,-0.3%,i
CCCC1(C(=O)O)NC(c2ccccc2O)C2C(=O)N(c3cccc(Cl)c3)C(=O)C21 (stereo not given),nt,1%,nt,0.8%,nt
COc1ccccc1CN(Cc1cc2c(C)ccc(C)c2[nH]c1=O)Cc1nnnn1Cc1ccco1,i,?,1.6e-08,0.7%,i
CCOC(=O)CSc1cc(C)nc(N)n1,i,nt,3.9e-08,-1.3%,i
COc1ccc(N2CCN(CCNC(=O)CCCn3c(=O)[nH]c4cc(Cl)ccc4c3=O)CC2)cc1,i,-8%[11.4 µM],1e-09,-1.0%,i
CC(=O)c1cccc(NC(=O)C2CCCN(S(=O)(=O)c3ccc(F)cc3)C2)c1 (stereo not given),i,-7%,1.9e-08,-0.7%,i
CC(=O)c1cccc(NC(=O)Oc2ccccc2)c1,nt,-1%,nt,3.6%,nt
Cn1c(=O)cc(SCC(=O)N2CCN(Cc3ccc4c(c3)OCO4)CC2)c2ccccc21,i,10%[11.4 µM],1e-09,-1.0%,i
OCCN1CCN(CCC=C2c3ccccc3Sc3ccc(Cl)cc32)CC1,i,12%[25.6 µM],1e-08,-1.1%[25.7 µM],i
O=C1NC(O)=NC1(c1ccccc1)c1ccccc1,i,7%,2.2e-08,-3.6%,i
CCOC(=O)C1CCCN(C/C(O)=C(\C#N)c2nc(-c3ccc(Cl)cc3)cs2)C1 (stereo not given),i,nt,1e-09,-0.7%,i
CCOC(=O)C1CCCN(Cc2cc(Br)ccc2OC)C1 (stereo not given),nt,?,nt,-0.8%,nt
Cc1ccc2c(c1)N(CCCC(=O)NCC1COc3ccccc3O1)C(=O)CO2 (stereo not given),i,10%,2e-08,0.5%,i
CC(C)(C)n1nnnc1C(c1cccs1)N(Cc1cccnc1)CC1CCCO1 (stereo not given),i,?,2.6e-08,1.0%,i
CCOc1ccccc1N1CC(C(=O)Nc2ccc(C(=O)O)cc2)CC1=O (stereo not given),i,-1%,1.4e-08,-3.8%,i
Cc1ccc(OCCn2c(=O)cnc3ccccc32)cc1,i,?,1e-09,-0.2%,i
O=S(=O)(N1CCCCC1)n1c(Cc2ccccc2)nc2ccccc21,i,?,2.1e-08,-1.1%,i
CO[C@H]1C[C@@H]2CC[C@@H](C)[C@@](O)(O2)C(=O)C(=O)N2CCCC[C@H]2C(=O)O[C@H]([C@H](C)C[C@@H]2CC[C@@H](O)[C@H](OC)C2)CC(=O)[C@H](C)C=C(C)[C@@H](O)[C@@H](OC)C(=O)[C@H](C)C[C@H](C)C=CC=CC=C1C,i,nt,1.3e-08,nt,i

New compounds follow:
Compound,Resorufin autofl,TSHR ag,A647 autofl,AID923,A488 autofl
CC1(C)CC(NC(=O)C(F)(F)F)CC(C)(C)N1OC(=O)c1ccco1,i,-4%[11.4 µM],1.6e-08,-0.7%,i
COc1ncc2nc(-c3ccccc3)c(=O)n(Cc3cccs3)c2n1,i,9%,2.8e-09,11%,i
O=C(c1ccncc1)N1CCC2(CC1)CN(c1ccccn1)C2,i,?,2.6e-08,1.7%,i
Fc1cccc(F)c1C(Nc1nncs1)Nc1nncs1,i,14%[11.4 µM],4.2e-08,-3.4%[11.5 µM],i
O=C(O)c1c[nH]c2c(ccc3[nH]cc(C(=O)O)c(=O)c32)c1=O,i,10%[11.4 µM],1.3e-09,5.6%[11.5 µM],i
Cc1cccc(N2C(=O)CC(N(C(=O)c3ccco3)c3cccc(C)c3)C2=O)c1 (stereo not given),i,-1%,1e-09,1.4%,i
Cc1c(C)c2ccc(OC3CCCCC3=O)cc2oc1=O (stereo not given),nt,4%,nt,-2.1%,nt
CS(=O)(=O)Nc1ccc(C(=O)NCCSCc2ccco2)cc1,i,?,4.8e-08,0.6%,i
Cc1noc(C)c1S(=O)(=O)N1CCCC(C(=O)Nc2ccc(Cl)cn2)C1 (stereo not given),i,13%,1e-09,-0.6%,i
CCN(CC)S(=O)(=O)c1ccc2[nH]c(=O)[nH]c2c1,i,9%,1e-09,0.6%,i
O=[n+]1c2c(n([O-])c3cc(F)ccc31)CCCC2,i,0%,1e-08,2.6%,i
CCOC(=O)c1c(C)[nH]c(/C(C)=N/O)c1C,i,nt,1.9e-09,nt,i
NC1=C(O)C(=O)[C@H](c2c[nH]c3ccc(OCc4ccccc4)cc23)O1,i,27%[11.4 µM],5.8e-09,-2.3%[11.5 µM],i
COCCN(CCOC)c1nc(C)nc2c1nc(-c1ccccc1)n2CC1CCN(C)CC1,nt,9%,nt,3.9%,nt
Cn1c(=O)[nH]c(=O)c2[nH]c(N(Cc3ccccc3)Cc3ccccc3)nc21,i,?,1e-09,-0.7%,i
COCCN(C(=O)CNC(=O)c1ccco1)C(C(=O)NC1CCCCC1)c1cccc(OC)c1 (stereo not given),i,9%,1e-09,-1.0%,i

Copied from the results shown, 4 compounds:
Compound,Resorufin autofl,TSHR ag,A647 autofl,AID923,A488 autofl
Cc1c(C)c2ccc(OC3CCCCC3=O)cc2oc1=O (stereo not given),nt,4%,nt,-2.1%,nt
CS(=O)(=O)Nc1ccc(C(=O)NCCSCc2ccco2)cc1,i,?,4.8e-08,0.6%,i
Cc1noc(C)c1S(=O)(=O)N1CCCC(C(=O)Nc2ccc(Cl)cn2)C1 (stereo not given),i,13%,1e-09,-0.6%,i
CCN(CC)S(=O)(=O)c1ccc2[nH]c(=O)[nH]c2c1,i,9%,1e-09,0.6%,i

The list is partial; rates above refer to the full screens.
